VDR inh – blocks the human vitamin D receptor; 400,000 tested, 0.93% active; Potency, µM, inactives show max response, negative = inhibition, most hits filed as inhibitors; AID 504847; VDR-SRC2-3 peptide fluorescence polarization, 2 h; P11473; active = well fitted inhibition curve with a large enough effect; inconclusive = small, poorly fitted or top-dose-only effect, or another doubt; inactive = no such curve, though single readings can be large or run the other way; also: series mostly up to about 120 µM
Target sequence (P11473 whole entry, looked up): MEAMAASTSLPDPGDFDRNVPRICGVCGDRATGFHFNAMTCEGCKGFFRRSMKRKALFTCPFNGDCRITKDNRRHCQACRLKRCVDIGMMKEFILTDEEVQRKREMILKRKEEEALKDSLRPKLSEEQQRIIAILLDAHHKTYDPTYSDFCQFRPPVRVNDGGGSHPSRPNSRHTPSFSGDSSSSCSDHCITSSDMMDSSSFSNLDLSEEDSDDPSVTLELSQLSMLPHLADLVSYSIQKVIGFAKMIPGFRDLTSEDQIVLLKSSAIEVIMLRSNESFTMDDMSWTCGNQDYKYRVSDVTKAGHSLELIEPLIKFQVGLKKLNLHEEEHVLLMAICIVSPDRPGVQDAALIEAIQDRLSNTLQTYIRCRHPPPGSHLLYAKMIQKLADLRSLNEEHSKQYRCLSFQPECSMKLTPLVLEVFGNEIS
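VDR–SRC2-3 interaction, FP format. Cmpds 23 nl via pintool, brief spin, 2 h ambient incubation.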
* hit, by the source's call; ? = inconclusive; & = joins results of further samples; [ ] = dose if it differs, or a comment. % is scaled to controls: 0 for no effect and ±100 for the full control effect; potency is read from the fitted curve at half-maximal effect. Not all compounds are listed; rates above refer to the full screens.

SMILES,VDR inh
O=C(CCn1c(=O)oc2ccccc21)NCCCN1CCN(c2ccc(F)cc2)CC1,-6%
CC(OC(=O)c1cccc([N+](=O)[O-])c1)C(=O)N1CCc2ccccc21 (stereo not given),6%
Cc1cc2c(cc1C)[n+](C)cn2CC(O)COCC1CC=CCC1 (stereo not given),-3%
COc1ccc(NC(=O)CN2C(=O)NC(C)(C3CC3)C2=O)cc1S(=O)(=O)N1CCOCC1 (stereo not given),26%
CC1=NN(c2ccc(Cl)cc2)C(=O)C1C(c1cccc(O)c1)c1c(C)[nH]n(-c2ccc(Cl)cc2)c1=O (stereo not given),79µM*
C[C@H](NC(=O)OC(C)(C)C)C(=O)N/N=C/c1cccc2nccnc12,-7%
CCn1c(SCc2nc3ccccc3[nH]2)nnc1-c1cccs1,-12%
COc1ccc(CN2C(=O)C(Cc3ccccc3)Nc3ncnc(N4CCN(c5ccccc5)CC4)c32)cc1 (stereo not given),11%
CCOc1cc(/C=C/c2cccc[n+]2C)ccc1O,-6%
COC(=O)C(NC(=O)c1c(C)nn(C)c1Cl)c1ccccc1 (stereo not given),7%
COc1ccccc1-c1c(C)nn2c(N3CCOCC3)cc(C)nc12,9%
COc1ccccc1CCc1nnc(CCC(=O)NCCCOc2cccnc2)o1,-9%
CCc1sc(NC(=O)c2cc3ccccc3oc2=O)nc1-c1cccs1,1%
COc1cc(OC)c(NC2(c3ccccc3)C(=O)c3ccccc3C2=O)cc1Cl,15%
O=c1c(-c2cccs2)nc2cnc(Oc3cccc(Cl)c3)nc2n1C[C@H]1CCCO1,5%
Cc1cccc(S(=O)(=O)NCCNS(=O)(=O)c2cccc(C)c2)c1,3%
COc1ccc(CNC(=O)c2ccc3ccccc3n2)cc1OC,-3%
CCOc1ccc(NC(=O)CN(C)C(=O)c2cn3ccccc3n2)cc1OCC,-7%
COc1ccc(OCC2CNC(=O)O2)cc1 (stereo not given),2%
CCOC(=O)CNC(=O)c1nn(-c2ccc(OCC)cc2)c(=O)c2ccccc12,-9%

An excerpt from above in order of length of the SMILES, ascending.
SMILES,VDR inh
CCOc1cc(/C=C/c2cccc[n+]2C)ccc1O,-6%
Cc1cc2c(cc1C)[n+](C)cn2CC(O)COCC1CC=CCC1 (stereo not given),-3%
CCOc1ccc(NC(=O)CN(C)C(=O)c2cn3ccccc3n2)cc1OCC,-7%

Further results:
SMILES,VDR inh
Cc1ccsc1/C=N/n1c(-c2ccccn2)n[nH]c1=S,-13%
COc1ccccc1N1CCN(C(=O)c2onc(C)c2Cl)CC1,-17%
COc1ccc2sc(NC(=O)c3ccco3)nc2c1,2%
COc1ccc(N(CC(=O)NCCc2cccc(C)c2)S(=O)(=O)c2c(C)nn(C)c2C)cc1,-10%
Cc1ccc(/C=C/C(=O)NN2CCN(C)CC2)cc1,3%
Cc1c(C(=O)N(Cc2ccncc2)CC2CCCO2)oc2c(F)cccc12 (stereo not given),-10%
CC(=O)N(CCC(c1ccco1)C(C)C)Cc1ccc(Cl)cc1 (stereo not given),?
Cc1ccc(S(=O)(=O)N2CCN(CC(=O)NC3CCCc4ccccc43)CC2)cc1C (stereo not given),9%&28%
Nc1c(C(=O)Nc2ccc(Cl)cc2)sc2nc(N3CCOCC3)c3c(c12)CCCC3,12%
CCCCN(CC)CCCNC(=S)Nc1ccc2nc(N3CCN(CC)CC3)cc(C)c2c1,10%
COC(=O)C1=C(C)N(CCCC(=O)O)C(=O)NC1c1ccc(Cl)cc1 (stereo not given),-23%
Cc1cc(C)cc(N2CC(c3nc4ccccc4n3C)CC2=O)c1 (stereo not given),-6%
COCCn1c(SCc2cccnc2)nnc1-c1ccco1,0%
O=C(Nc1cc(C(F)(F)F)ccc1N1CCOCC1)c1cccc(F)c1,5%
COc1ccccc1-c1ccc(SCc2cccc(C)c2)nn1,-3%
Cc1nc(CSc2n[nH]c(=O)n2-c2ccccc2)cs1,-15%
CCC(=O)Nc1sc(Cc2ccc3c(c2)OCO3)c(C)c1C(N)=O,?
O=C(CCS(=O)(=O)c1cc(Br)cc2c1N(C(=O)C1CC1)CC2)Nc1ccc(Br)cc1F,1%
Cc1ccc(S(=O)(=O)NCCSc2ccccc2)cc1[N+](=O)[O-],?
Cc1ccc(/C=C(\NC(=O)c2ccccc2)C(=O)NCCc2ccccn2)o1,-10%

Additional compounds follow:
SMILES,VDR inh
NNC(=O)CNC(c1ccccc1)c1cc(Cl)ccc1NC(=O)c1ccccc1 (stereo not given),-1%
Cc1ccccc1N/C(SCc1ccc(Cl)cc1)=C(/C#N)C(N)=O,2%
O=C1c2ccccc2NC(c2ccc(Br)s2)N1O (stereo not given),-1%
COc1ccc(-c2noc(-c3ccc(Cl)cc3[N+](=O)[O-])n2)cc1OC,1%
CCOc1cc(N2CCOCC2)c(OCC)cc1NC(C)C(=O)N1CCC(C)CC1 (stereo not given),?
COCCNc1nnc(SCC(=O)N2CCN(S(=O)(=O)c3ccccc3)CC2)s1,15%
COc1ccc(NC(=O)CC2CCCCC2)cc1OC,8%
COc1cccc(CNc2nc3ccccc3n2C)c1O,-7%
Cn1c(COc2ccc3ccccc3c2)nnc1SCC(N)=O,12%
CC1CCCC(C)N1C(=O)COC(=O)COc1ccc(C#N)cc1 (stereo not given),-3%
Cc1ccc(NC(=O)C2(N(C(=O)Cn3nnnc3N)c3ccc(C)cc3)CCCCC2)cc1,15%
CC(C)c1ccc(/C=N/NC(=O)C(=O)NCCCN2CCOCC2)cc1,-2%
CC(C)CNC(=O)C1CCN(c2ccc(S(=O)(=O)N3CCOCC3)cc2[N+](=O)[O-])CC1,-3%
O=C(O)CN1C(=O)CSC1=S,39%[activator]
CC(=O)NC12CC3CC(C1)CC(C(=O)NCC(=O)Nc1c(C)cc(C)cc1C)(C3)C2,-4%
CCCn1c(=O)[nH]c(=O)c2c(C(=O)OCC)cc(-c3cccs3)nc21,?
Cc1ccc(C(=O)O/N=C(\N)c2cccnc2)cc1[N+](=O)[O-],-6%
CCN(CC)c1ccc(/C=N/NC(=O)CCC(=O)NCc2ccccc2)c(O)c1,-4%
c1ccc(C2CC(c3cccs3)Nc3nnnn32)cc1 (stereo not given),12%
O=C1CCN(S(=O)(=O)c2ccccc2)CCN1CCOCc1ccc(C(F)(F)F)cc1,-3%

Following part.
SMILES,VDR inh
CN(C)S(=O)(=O)c1cccc(C(=O)Nc2n[nH]c(C(F)(F)F)n2)c1,-9%
O=C(N/C(=C\c1ccccc1)C(=O)N1CCCCC1)c1ccc(Br)o1,3%
Clc1ccc(CNc2nnnn2-c2ccccc2)c(Cl)c1,-13%
Cc1ccc(OCCSc2nnc(-c3cccs3)o2)cc1Cl,-8%
CCc1ccc(/C=C2\Oc3c(ccc(O)c3CN3CCN(CCO)CC3)C2=O)cc1,-16%
Cn1cnnc1Sc1nc([N+](=O)[O-])nn1C,-8%
COc1ccc(-c2nn(-c3ccccc3)cc2CN(C)CCn2ccnc2C)c(F)c1,-3%
COc1cccc2c(=O)ccoc12,9%
COC(=O)Cc1[nH]n(-c2ccccc2)c(=O)c1C(C)=Nc1ccccc1,-1%
CCCn1c(=O)c2sccc2n2c(CCCC(=O)NC3CCC(C)CC3)nnc12 (stereo not given),5%
O=C(c1cccs1)N1CCN(Cc2cccc([N+](=O)[O-])c2)CC1,-10%
Cc1cnc(NC(=O)CC2CCCC2)s1,13%
O=C(CCN1C(=O)c2ccccc2S1(=O)=O)Nc1cccc(F)c1,-3%
O=C(CSc1ccc(-c2cccnc2)nn1)Nc1ccc(F)c(F)c1,-10%
NC(=O)NC(=O)CSc1ccccc1,-7%
CN(C)N1C(N)=C(C#N)C(c2ccsc2)C2=C1CC(C)(C)CC2=O (stereo not given),-5%
CC1CCN(C(=S)c2cn(Cc3ccc(F)cc3)c3ccccc23)CC1,-5%
CN1CCc2c1nc1ccccc1c2N=C1CCCN1Cc1ccccc1,-20%
COc1cc(NC(=O)CSc2nnnn2C2CCCC2)cc(OC)c1,11%
CC(=O)N1N=C(c2ccc(C)o2)CC1c1cccc(F)c1 (stereo not given),5%

Later entries.
SMILES,VDR inh
O=C(NCCCn1ccnc1)/C(=C/c1ccc(Cl)cc1)NC(=O)c1ccccc1,2%
CCCC(C)NC(=O)Cc1ccc(S(=O)(=O)N2CCOCC2)s1 (stereo not given),-7%
Cc1ccc(-c2nc(S(=O)(=O)c3ccc(Cl)cc3)c(N3CCCCC3)o2)cc1,1%
COc1ccc(NC(=O)c2csc(Cc3ccccc3)n2)cc1,-8%
CN(C1CCCCC1)S(=O)(=O)c1ccc2c(c1)c(=O)c(C(=O)NCc1ccc(F)cc1)cn2C,-25%
COc1ccc(NC(=S)NCCC(c2ccccc2)c2ccccc2)c(OC)c1,-11%
CCOC(=O)c1c(C)c(C(=O)NC(C)COC)c(C)n1CC (stereo not given),1%
CCN(CCN1CCCC1)C(=O)c1cc(COc2ccccc2SC)on1,2%
CC(C)c1ccc(NC(=O)c2cccc(Br)c2)cc1,-19%
O=C(NCC1CCCO1)c1cccc(Oc2c(Cl)cccc2[N+](=O)[O-])c1 (stereo not given),-10%
O=C(CNC(=O)OCc1ccccc1)NCC(=O)N1CCCC1C(=O)OCc1ccccc1 (stereo not given),-16%
Cc1ccoc1C(=O)NCc1occc1C(=O)O,-16%
O=C(Nc1cccc(Cl)c1)c1ccncc1,-6%
Cc1nc(C(C)N(C)Cc2c(C(=O)N3CCCCC3)nc3c(C)cccn23)c(C)s1 (stereo not given),-8%
Cc1nn(Cc2ccc(Cl)cc2)c(C)c1NC(=O)c1noc2c1CCc1ccccc1-2,-7%&-13%
CC(OC(=O)c1cccnc1)C(=O)NCc1ccc2c(c1)OCO2 (stereo not given),-16%
CCCS(=O)(=O)N1CCCC(C(=O)NCCN(CC)CC)C1 (stereo not given),-7%
CCN1CCCC1CNC(=O)C(=O)NC (stereo not given),-7%
O=C1COc2ccc(S(=O)(=O)NCCc3ccccc3)cc2N1,-5%
CCOP(=O)(OCC)c1nc(-c2ccc(Cl)cc2)oc1NCc1ccccc1,-9%

Other structures follow:
SMILES,VDR inh
N#CCSc1n[nH]c2nc3c(c(=O)n12)C1(CCCCC1)Cc1ccccc1-3,-12%
CC(C)(C)[C@@H]1C=C(C(=O)Nc2ccccc2)O[C@H](OCc2ccc(CO)cc2)C1,-5%
O=C(Nc1cccc(NC(=O)c2ccccc2Cl)c1)c1ccc(F)cc1,-6%
Cc1[nH]c2ccc(C(=O)N3CCN(c4ccccn4)CC3)cc2c1C,1%
COCc1nnc(NC(=O)c2ccc(S(=O)(=O)N3CCCc4ccccc43)cc2)o1,-6%
Cc1ccc(NC(=O)COC(=O)CCc2nc3ccccc3c(=O)[nH]2)c(Br)c1,10%
Cn1c(C(=O)N2CCCC(C(=O)N3CCN(C(=O)c4ccco4)CC3)C2)cc2sccc21 (stereo not given),2%
c1ccc(N2CCCCC2)c(NC2=NCCC2)c1,7%
O=C1Nc2ccc(Cl)cc2C(=O)C1(F)c1ccccc1 (stereo not given),2%
NS(=O)(=O)c1ccc(CNC(=O)NC23CC4CC(CC(C4)C2)C3)cc1,1%
CC1CN(C2=NC(=O)/C(=C/c3ccncc3)S2)CC(C)O1 (stereo not given),0%
COc1ccc(NC(=O)CN(C)C(=O)CCC(=O)c2ccc(C)cc2)cc1,-4%
C[n+]1ccc(/C=C/c2ccccc2O)c2ccccc21,-14%
COc1ccc(-n2nc([N+](=O)[O-])c(=NC3CCN(Cc4ccccc4)CC3)n2O)cc1,-13%
Cc1ccc2nc(N/N=C\c3ccc([N+](=O)[O-])o3)nc(-c3ccccc3)c2c1,7%
Cc1sc2c(c1C)c(=O)n(CCc1ccccc1)c(=O)n2Cc1cccc(F)c1,-17%
Nc1nc2cc(S(=O)(=O)NC3=NCCCCC3)ccc2s1,?
O=C(NCCO)/C(=C/c1ccc(Br)cc1)NC(=O)c1cccs1,-8%
CCCCCSc1ncnc2c1sc1nc(N3CCOCC3)c3c(c12)CCCC3,-21%
Cc1cc(=O)oc2c(CN(C)Cc3ccccc3)c(O)ccc12,-5%

Next structures follow.
SMILES,VDR inh
O=C(Cn1cccc1C(=O)c1ccccc1)NCCN1CCCCCC1,9%
CCn1cc(C(=O)N2CCN(c3ccccc3OC)CC2)c(=O)c2cc(S(=O)(=O)N3CCCCC3)ccc21,-12%
CC(=O)N1N=C(N)SC12CCCC2,8%
O=C(COCc1cc(-c2cccs2)on1)N1CCN(c2cccc(Cl)c2)CC1,9%
O=C(NCCN1CCOCC1)c1cc(-c2ccc(Cl)c(Cl)c2)on1,-4%
CCn1ncc(CN2CCC(C(=O)Nc3cccc(-c4cccc(F)c4)c3)CC2)c1C,13%
O=C(OCc1c(-c2ccccc2)ncc2ccccc12)c1ccc(F)cc1,-15%

Part of the list above in a different format:
> Cc1ccc(S(=O)(=O)N2CCN(CC(=O)NC3CCCc4ccccc43)CC2)cc1C (stereo not given)
- VDR inh: 9%&28%

> Nc1c(C(=O)Nc2ccc(Cl)cc2)sc2nc(N3CCOCC3)c3c(c12)CCCC3
- VDR inh: 12%

> CCCCN(CC)CCCNC(=S)Nc1ccc2nc(N3CCN(CC)CC3)cc(C)c2c1
- VDR inh: 10%

> COC(=O)C1=C(C)N(CCCC(=O)O)C(=O)NC1c1ccc(Cl)cc1 (stereo not given)
- VDR inh: -23%
